Screening results: PubChem, several laboratories
Mtb growth: M. tuberculosis H37Rv growth inhibitors, H37Rv strain (AID 1626). M. tuberculosis H37Rv growth inhibition; higher % means a stronger effect. 220,000 tested, 0.95% active. one-dose inhibition, % at 10 µM; IC50 in µM for titrated hits;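 active = confirmed in a dose series; inconclusive = inhibition above 80% but not taken into the dose series; inactive = below 80% or under 30% at every dose of the series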;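 also: bacteria incubated seven days before Alamar blue readout; 0% = bacteria only wells and 100% = bacteria with antibiotic wells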
Arbovirus anti: antivirals against arbovirus infection | arbovirus infection cell-based antiviral screen | inhibition, % at 10 µM | 200,000 tested, 0.37% active | AID 1251;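 active = inhibition from about 30%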;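 also: bluetongue infection of BSR cells; cell survival read as ATP light after 72 h; 0% = infected wells without compound and 100% = uninfected wells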
RecA intein inh: inhibitors of M. tuberculosis RecA intein splicing | 290,000 tested, 0.75% active | cell-free RecA intein splicing, fluorescence | P9WHJ3 | inhibition, %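 (about 9 µM by stock and volumes)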; in the data active = inhibition above about 30%; inconclusive = no clear call, values can overlap the other calls;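 also: 0% = vehicle wells and 100% = reference inhibitor control wells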
Target sequence (P9WHJ3 whole entry, looked up): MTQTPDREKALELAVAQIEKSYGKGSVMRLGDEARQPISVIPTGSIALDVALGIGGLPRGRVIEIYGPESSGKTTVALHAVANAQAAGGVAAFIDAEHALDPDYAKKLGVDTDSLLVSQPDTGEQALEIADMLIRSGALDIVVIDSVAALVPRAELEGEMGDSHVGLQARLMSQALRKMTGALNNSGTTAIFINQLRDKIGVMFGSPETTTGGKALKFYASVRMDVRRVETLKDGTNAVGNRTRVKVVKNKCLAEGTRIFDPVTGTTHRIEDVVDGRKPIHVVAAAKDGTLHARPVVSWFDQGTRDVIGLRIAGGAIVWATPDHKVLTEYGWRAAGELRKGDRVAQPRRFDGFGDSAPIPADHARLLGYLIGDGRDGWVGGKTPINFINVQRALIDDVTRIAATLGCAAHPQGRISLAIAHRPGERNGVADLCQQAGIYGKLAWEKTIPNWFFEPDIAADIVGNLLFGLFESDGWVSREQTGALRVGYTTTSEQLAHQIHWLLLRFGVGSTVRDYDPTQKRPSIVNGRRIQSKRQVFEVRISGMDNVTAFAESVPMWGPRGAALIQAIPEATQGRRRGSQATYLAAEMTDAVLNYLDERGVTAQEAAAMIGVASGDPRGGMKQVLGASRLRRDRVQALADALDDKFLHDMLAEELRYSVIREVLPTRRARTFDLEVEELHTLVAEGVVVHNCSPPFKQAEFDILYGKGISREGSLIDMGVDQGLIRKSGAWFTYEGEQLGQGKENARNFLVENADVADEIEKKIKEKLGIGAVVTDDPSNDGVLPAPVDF
Mtb bLac sens: beta-lactam sensitization of Mtb H37Rv; M. tuberculosis H37Rv growth with meropenem, percent inhibition; hits of this screen are not shown here; inhibition, % at 25 µM; 330,000 tested, 0.27% active; AID 434955;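 active = about 74% or more and at least 40 points above the plate without the antibiotic, then above 30% in a dose series; inconclusive = first-round hits that could not be retested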;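 also: growth measured after seven days incubation then overnight dye step; 0% = bacteria only wells and 100% = bacteria with antibiotic; twin plates without the antibiotic show which effects depend on it; some results filed as inactive read as strong as hits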
YopH PTP inh: YopH (Yersinia) phosphatase inhibition | fluorescence Ex485/Em525 | inhibition, %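 (about 10 µM by stock and volumes)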 | 140,000 tested, 0.16% active | AID 898;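 active = inhibition of 50% or more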;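 also: controls were vehicle for no effect and minimum signal wells for full effect; inactives centre near -20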
Arbovirus anti repeat: also measured in Arbovirus anti; calls as there; inhibition, %; measured here: 10K subset replicate screen; many hits read low in the repeat;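 first of two repeat runs on a subset; 0% = infected and 100% = uninfected wells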
An asterisk follows results filed as active; ? = inconclusive; . = not tested or not shown. This is a subset; count on the stated rates, not on these rows.

SMILES	Mtb growth	Arbovirus anti	RecA intein inh	Mtb bLac sens	YopH PTP inh	others
COc1ccc2nc(N/C(N)=N/C(=S)Nc3ccccc3)nc(C)c2c1	1%	0	4.4	24	.
CCc1ccc(C(C)NC(=O)c2ccc3c(c2)OCO3)cc1 (stereo not given)	.	.	-0.7	-2	.
O=C(Nn1c(C2CCCCC2)nc2ccccc2c1=O)c1ccc(Cl)c([N+](=O)[O-])c1	5%	15	3.1	-14	-23
Cc1ccc(CNC2=NCCS2)cc1	0%	.	-0.7	-6	.
CC[C@@H](C)[C@H](NC(=O)Cc1c(C)c2cc3c(C)coc3c(C)c2oc1=O)C(=O)O	.	.	-3.4	2	.
O=c1c2ccccc2nc2n1CC/C2=C/N1CCN(c2cccc(C(F)(F)F)c2)CC1	-13%	6	3.7	-3	-43
C=CCNC(=O)NS(=O)(=O)c1ccc(C)cc1	-2%	6	-2.1	-1	-14
CCc1ccccc1NC(=O)COc1ccc2c(c1)OCO2	10%	8	1.5	-4	.
Cc1cc(C)n(C(=O)c2ccc(C)c(S(=O)(=O)N3CCCCC3)c2)n1	-2%	3	.	0	-17
Cc1cc2oc(=O)cc(Cn3ncc(Cl)c(Cl)c3=O)c2cc1Cl	?	-22	11	96	.
CCCn1c(C(=O)c2ccccc2)nc2ccccc21	-1%	-4	1.1	4	.
COc1ccc(C)cc1NC(=O)NC(C)c1ccc2c(c1)OCO2 (stereo not given)	.	.	0.1	-1	.
CCOC(=O)c1ccc(N2C(=O)C(CC(=O)NC)N(CCc3ccc(OC)c(OC)c3)C2=S)cc1 (stereo not given)	61%	5	-1.0	59	.
COc1ccccc1CNC(=O)c1cc(C)nc2ccccc12	.	.	1.5	-1	.
COc1ccc(C(=O)N2C(=O)c3ccc(N)cc3C2=O)cc1	-12%	0	-19	0	.
CCc1ccc(NC(=O)CSc2nc(NS(=O)(=O)c3ccccc3)cc(=O)[nH]2)cc1	19%	1	1.1	.	.
O=C(Nc1ccc(C(F)(F)F)cc1Cl)c1ccc(Cn2cc(Br)cn2)o1	3%	-6	2.8	8	-12
CC(C)NC(=O)c1cc(-c2ccc(Br)cc2)on1	5%	-3	-1.8	4	-37
Cc1ccc(Nc2cc(-n3nc(C)cc3C)ncn2)c(C)c1	9%	-3	1.3	29	19
COc1ccc(OC)c(NC(=O)c2cccc(N3C(=O)C4C5C=CC(C6CC56)C4C3=O)c2)c1 (stereo not given)	.	.	0.4	-1	.
CCN(CC)C(=O)c1csc(Nc2cccc3ccccc23)n1	.	.	3.8	2	.
COc1ccc(NC(=O)CCn2cc(C)c3ccccc32)cc1	.	.	30	-15	.
O=C(N/C(=C/C=C/c1ccccc1)C(=O)N1CCOCC1)c1ccccc1Cl	-5%	15	-0.4	-10	.
CCC(CC)=NNC(=O)c1ccccc1OCc1ccc(F)cc1	-5%	-6	9.7	-13	7
O=C(c1ccco1)N1CCN(C(=O)C2CCCN(S(=O)(=O)c3cccc4nsnc34)C2)CC1 (stereo not given)	-7%	4	2.9	1	11
COc1ccc(C/C(N)=N/OC(=O)c2cccs2)cc1	-2%	6	-0.7	4	.
Cc1cc(C)n(S(=O)(=O)c2cc(C(=O)O)c(Cl)cc2Cl)n1	-1%	.	-1.7	9	-55
O=C(NCC1CCCO1)c1cc2cc(F)ccc2[nH]1 (stereo not given)	.	.	0.9	5	.
CCc1ccccc1NC(=O)C(C#N)Cc1cccnc1 (stereo not given)	2%	4	2.1	1	-31
CCOC(=O)NC(Nc1ccc(C)cn1)(C(F)(F)F)C(F)(F)F	5%	7	4.5	1	-49	Arbovirus anti repeat=5
CCOC(=O)N1CCN(S(=O)(=O)c2ccc3c(c2)oc(=O)n3C)CC1	2%	-4	17	9	-16
CC1(C)CCCC2=C1CC1C(=O)N(O)C(=O)C1C2 (stereo not given)	1%	1	-1.4	-12	-38	Arbovirus anti repeat=0
Cc1nn(-c2ccccn2)c2c1C(c1ccccn1)C1=C(CCCC1=O)N2 (stereo not given)	-11%	-1	.	.	-26
COCCNC(=O)Nc1ccc2c(c1)N(C)C(=O)CS2	1%	13	-1.5	-6	-27
Cc1nn(Cc2ccccc2)c(C)c1NC(=O)CCCn1nc([N+](=O)[O-])cc1C	-8%	-7	0.6	-3	.
CNCC(=O)Nc1ccc(OC(F)(F)F)cc1	-9%	0	-1.6	-4	.

Five records drawn at random from those above:
SMILES	Mtb growth	Arbovirus anti	RecA intein inh	Mtb bLac sens	YopH PTP inh	others
C=CCNC(=O)NS(=O)(=O)c1ccc(C)cc1	-2%	6	-2.1	-1	-14
CCOC(=O)N1CCN(S(=O)(=O)c2ccc3c(c2)oc(=O)n3C)CC1	2%	-4	17	9	-16
CCC(CC)=NNC(=O)c1ccccc1OCc1ccc(F)cc1	-5%	-6	9.7	-13	7
Cc1cc(C)n(S(=O)(=O)c2cc(C(=O)O)c(Cl)cc2Cl)n1	-1%	.	-1.7	9	-55
CCc1ccc(NC(=O)CSc2nc(NS(=O)(=O)c3ccccc3)cc(=O)[nH]2)cc1	19%	1	1.1	.	.

Next section.
SMILES	Mtb growth	Arbovirus anti	RecA intein inh	Mtb bLac sens	YopH PTP inh	others
CCc1ccc(-c2cc(C(=O)NN3CCOCC3)c3ccccc3n2)s1	-2%	-1	-7.7	-9	.
COc1ccccc1C(=O)Nc1ccc(C(=O)N2CCCC2)cc1	-18%	-8	1.0	-1	-18
COc1ccc(C(C(=O)NC2CCCC2)N(Cc2cccnc2)C(=O)c2snc(C(N)=O)c2N)cc1OC (stereo not given)	.	.	-2.6	3	.
CC(=O)c1cnn(-c2ccc(Cl)cc2)c1C	-3%	.	-5.2	4	.
COC(=O)c1c(C(=O)OC)c2cc(C(=O)c3ccccc3)ccn2c1Cl	4%	-8	-37	-7	-6
Cn1c(CCN2CCN(c3ccccn3)CC2)nc2cc(NC(=O)COc3ccc([N+](=O)[O-])cc3)ccc21	.	.	-0.8	3	.
Cc1cc([N+](=O)[O-])ccc1NC(=O)/C=C/c1cccs1	0%	0	2.7	6	-16
COc1ccccc1N1CCN(C(=O)Cn2c(=O)oc3cc(S(=O)(=O)N4CCCC4)ccc32)CC1	.	.	-1.3	3	.
Cc1cccc(C(=O)Nc2ccc(C)c(OC(=O)c3cccc(C)c3)c2)c1	15%	2	.	.	-8
CCCCC(=O)Nc1cccc(NC(=O)c2ccc(Br)cc2)c1	3%	-2	5.2	-4	-29
CC(C)(C)C1CCC(=O)N(CCOc2ccccc2)CC1 (stereo not given)	.	.	4.0	5	.
Cc1c(NC(=O)C(C)OC(=O)COc2cccc3c2OC(C)(C)C3)c(=O)n(-c2ccccc2)n1C (stereo not given)	1%	7	-1.0	-8	-19
COc1ccc2c(=O)c3c(=O)n(Cc4ccco4)c(-c4ccccc4)nc3oc2c1	-4%	6	10	6	-36
Cc1onc(-c2ccccc2Cl)c1C(=O)NCC(=O)O	-7%	8	-1.1	-4	-7
Cc1cc(C(=O)N/N=C/C=C/c2ccc3c(c2)OCO3)n[nH]1	3%	-1	-1.1	-4	-21
CC(=O)NCCCNS(=O)(=O)c1ccc(C)cc1	2%	2	3.2	-4	.
O=C(COC(=O)/C=C/c1cccs1)Nc1nc(-c2cccc(Br)c2)cs1	3%	.	-22	18	.
O=C(Cc1c(Cl)cccc1Cl)N1CCN(Cc2ccccc2)CC1	.	.	-0.9	-1	.
CN(C)/C=C(\C#N)C(N)=C(C#N)C#N	-3%	9	0.6	-5	.
O=C(CSc1nnc(-c2ccccc2F)n1C1CCCCC1)N1CCCC1	-3%	4	2.8	-17	-37
O=C(COC(=O)/C=C/c1ccccc1F)Nc1nnc(-c2ccccc2)o1	.	.	0.7	84	.
COc1c(O)cccc1-c1nnn(CCC(=O)OCC(=O)c2ccccc2)n1	41%	3	-0.4	33	-47
O=C(CCCOc1ccccc1)Nc1cccc(C(=O)O)c1	-3%	3	1.3	-14	-33	Arbovirus anti repeat=9
O=C(COc1ccc(S(=O)(=O)N2CCOCC2)cc1Cl)NC1CCCCC1	.	.	1.2	1	.
CCN(CC)S(=O)(=O)c1cc(NC(=O)COc2ccc(C#N)cc2OC)ccc1C	2%	-4	-0.9	6	-15
CCCCn1c(=O)[nH]c(=O)c2c1nc(-c1ccc(C#N)cc1)n2C1CCCC1	.	-20	0.3	-13	-34
CCSc1nc(-c2ccc(OC)cc2)cc(-c2ccccc2)c1C#N	3%	-2	-0.8	11	-15
O=C1[C@H]2[C@H]3[C@H](O)[C@H](O)C/C(=N\OC[C@@H](O)COCc4ccco4)[C@@H]3CC[C@H]2C(=O)N1c1ccc(F)cc1F	.	6	-2.1	-20	-17
O=C(c1cccc(S(=O)(=O)N2CCCC2)c1)N(Cc1ccco1)C1CCS(=O)(=O)C1 (stereo not given)	-4%	3	-1.3	3	.
Cc1ccc(C(=O)N/C(=C\c2ccc(F)cc2)C(=O)NCc2ccncc2)cc1	4%	3	-2.0	0	-26
O=C(Cc1ccsc1)Nc1ccc(S(=O)(=O)C(F)F)cc1	8%	12	-4.1	4	.
CC(On1nnc2ccc(S(=O)(=O)N3CCOCC3)cc21)C(=O)Nc1ccccc1F (stereo not given)	.	.	-1.9	-5	.
CC(=O)c1ccc(NC(=S)NC(C)CCc2ccccc2)cc1 (stereo not given)	3%	7	.	2	.
COc1ccc(NC(=O)C(c2ccc(C)cc2)N(C)C(=O)c2ccc(=O)[nH]c2)cc1 (stereo not given)	-1%	5	1.9	2	-25
O=C(CSc1ccc2c(c1)OCCO2)Nc1ccc(Br)cc1	?	1	0.7	100	-2
CCC1(c2ccccc2)C(=O)N(COC)C(=O)N(COC)C1=O	2%	1	0.3	-2	-39
Cc1ccc2nc(N(CCN(C)C)C(=O)c3ccc4ccccc4c3)sc2c1	.	.	4.3	?	.
COc1ccc(CCN2CC(C(=O)NCC3(O)CCCCC3)CCC2=O)cc1 (stereo not given)	.	.	2.4	-18	.
O=C(Nc1ccc(Cl)cn1)C1CCCN1S(=O)(=O)c1ccccc1 (stereo not given)	-2%	8	-1.9	-7	-50
O=S(=O)(Nc1nc2ccccc2nc1NCC1CCCO1)c1cc(Cl)ccc1Cl (stereo not given)	-21%	.	2.1	-1	.
CCS(=O)(=O)c1ncc(CO)n1CCc1ccccc1	.	.	-0.1	-9	.
CCOC(=O)CSc1cc(CSc2ccccc2)nc(-c2ccccc2)n1	12%	12	9.3	-4	-9
CC1(OC(=O)c2ccco2)C(=O)C=C2C=C(c3ccsc3)OC=C2C1=O (stereo not given)	-1%	.	-2.0	-2	.
COc1cc2c(cc1OC)CN(CC(=O)Nc1ccccc1SC)CC2	8%	11	5.3	-4	.
CCCCNS(=O)(=O)c1ccc(NC(=O)C(Sc2ccccc2)c2ccccc2)cc1 (stereo not given)	6%	-16	-0.1	0	-33
C/C(=N\NC(=O)c1ccc(COc2ccccc2)cc1)c1ccncc1	-2%	-13	-2.6	5	.
Cc1ccccc1NC(=O)/C(C#N)=C\c1cc(C)n(-c2ccc(C(=O)O)cc2)c1C	11%	.	-0.9	.	.
CC1(C(=O)N2CC3(CC(c4cccc(NC(=O)CC(c5ccccc5)c5ccccc5)c4)=NO3)C[C@@H]2C(N)=O)CC1 (stereo not given in full)	5%	.	5.1	48	.
CCC(COC(=O)Nc1cccc(C)c1)NC(=O)OCC(C)C (stereo not given)	-3%	-3	-2.2	-5	-35
Cc1ccc(C(=O)Nc2cnc3sc(C)nn3c2=O)cc1	13%	2	1.2	-15	-12
CCOC(=O)C(C)Oc1ccc(C2NC(=O)NC(C)=C2C(=O)Nc2ccccc2C)cc1 (stereo not given)	-5%	9	-0.1	.	-17
CCOC(=O)COc1cc(-n2c(=S)[nH]c3cc(OC)c(OC)cc3c2=O)c(Cl)cc1Cl	6%	-16	-6.0	48	.
COc1ccccc1CNC(=O)COc1ccc2c(c1)CCC2	5%	-2	4.0	0	.
O=S1(=O)CCOC[C@H](Cc2ccccc2)N1Cc1ccc(F)cc1	13%	.	0.1	6	.
CC(CCc1ccccc1)NC(=O)COC(=O)C12CC3CC(CC(Br)(C3)C1)C2 (stereo not given)	-3%	8	5.2	4	-10
Cc1ccc(S(=O)(=O)c2nc(NCc3ccc4c(c3)OCO4)sc2Cl)cc1	-4%	6	19	-7	-38

Part of the list above in order of molecular weight, high to low:
SMILES	Mtb growth	Arbovirus anti	RecA intein inh	Mtb bLac sens	YopH PTP inh	others
COc1ccc(C(C(=O)NC2CCCC2)N(Cc2cccnc2)C(=O)c2snc(C(N)=O)c2N)cc1OC (stereo not given)	.	.	-2.6	3	.
COc1c(O)cccc1-c1nnn(CCC(=O)OCC(=O)c2ccccc2)n1	41%	3	-0.4	33	-47
CCSc1nc(-c2ccc(OC)cc2)cc(-c2ccccc2)c1C#N	3%	-2	-0.8	11	-15
CCOC(=O)NC(Nc1ccc(C)cn1)(C(F)(F)F)C(F)(F)F	5%	7	4.5	1	-49	Arbovirus anti repeat=5
